HSD17B inhib – inhibitors of human HSD17B10 dehydrogenase; hit rate 7.6% among 75,000; Potency, µM (highest dose often 57.1 µM), for the others: at the highest dose activity change, negative = inhibition, actives largely listed as inhibitors; recombinant HSD17B10, NADH fluorescence kinetic; many of its hits are not listed in these tables; AID 893; active = well fitted inhibition curve with a large enough effect; inconclusive = small, poorly fitted or top-dose-only effect; inactive = no such curve, though single readings can be large or run the other way;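 also: the protocol describes HADH2 (HSD17B10) and not the HSD17B4 of the title; nearly all actives have a fitted effect of over 70% in size; most hits overshoot -100% by far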
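His-tagged E. coli-expressed HADH2 at 20 nM in 100 mM Tris-HCl pH 9.0 with 0.01 % Tween-20, preincubated 15 min with compound at room temperature. Reaction with 1 mM NAD+ and 90 uM beta-hydroxybutyryl coenzyme A; NADH fluorescence (360/450 nm) read kinetically over 4 min, last minus first point.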
Starred values were filed as active, the others as inactive; ? = inconclusive; [ ] = dose if it differs, or a comment. % is scaled to controls: 0 for no effect and ±100 for the full control effect; potency is read from the fitted curve at half-maximal effect. This is a subset; rates above refer to the full screens.

nr	canonical_smiles	HSD17B inhib
1	COC(=O)c1ccc(C(NC(=O)OCc2ccccc2)/C(C)=C/[C@@H](C)C(=O)N(C)Cc2cccnc2)cc1 (stereo partly drawn)	8%
2	COc1cccc(NC(=O)CSc2nncn2-c2ccccn2)c1	3%
3	O=C(Nc1ccccn1)C12CC3CC(C1)CC(C(=O)Nc1ccccn1)(C3)C2	14%
4	CCCn1c(=O)c2[nH]c(-c3ccccc3)nc2n(CCC)c1=O	32µM*
5	N/C(=N\O)c1ccc(NC(=O)c2ccc(Br)o2)cc1	-1%
6	Cc1cccnc1NC(=O)CCCN1C(=O)c2ccccc2C1=O	-3%
7	CCn1cc(C(=O)N2CCOCC2)c(=O)c2cc(S(=O)(=O)N(C)C)ccc21	-7%
8	COc1cc(OC)cc(C(=O)NCc2nc(-c3ccccc3)no2)c1	-8%
9	O=C(CSc1nc(-c2ccco2)cc(C(F)(F)F)n1)Nc1ccc2c(c1)CCC2	-1%
10	COc1ccc(N(CC(=O)Nc2cc(OC)ccc2OC)S(C)(=O)=O)cc1	0%
11	COc1ccc(N2CCN(c3oc(COc4ccccc4)nc3C#N)CC2)cc1	1%
12	Nc1nsc2ccccc12	?
13	CS(=O)(=O)Nc1cccc(-c2ccc3ncnc(N4CCOCC4)c3c2)c1	3%
14	CSc1nc(C)cc(-n2cc(F)c(=O)[nH]c2=O)n1	9%
15	CN(C(=O)c1cnccn1)c1nnc(-c2cnccn2)s1	-14%
16	COC(=O)C1CCN(C(=O)c2cc(OC)c(OC)c(OC)c2)CC1	1%
17	COc1cccc(-c2nc(NCCNC(C)=O)c3ccccc3n2)c1	-6%
18	COc1ccc(C)cc1-n1c(SCC(=O)Nc2cc(C)on2)nc2sc(C)c(C)c2c1=O	-9%
19	Cc1cc(=O)[nH]c2c1c(C)nn2-c1ccccc1	32µM*
20	CC(=O)CCS(=O)(=O)c1ccc(C)c(C)c1	-3%
21	Cn1c(=O)cc(-c2ccccc2)c2ccccc21	?
22	CCOC(=O)C1=C(N)Oc2cc(C)n(C)c(=O)c2C1c1ccncc1 (stereo not drawn)	6%
23	NCCSCCC(=O)O	3%[11.4 µM]
24	CSC1=C(C#N)C(c2ccc(Cl)cc2)C2=C(CC(C)(C)CC2=O)N1 (stereo not drawn)	?
25	CCCCNc1nc(SC)nc2nc[nH]c12	4%[11.4 µM]
26	Cc1cc(C)nc(SCc2nc3ccccc3n2C)n1	5%
27	CCCC(c1nnnn1CCC(C)C)N1CCC(C(N)=O)CC1 (stereo not drawn)	-4%
28	CCC(=O)N1CCc2cc(S(=O)(=O)NCCCOC)ccc21	-4%
29	Cc1ccc(S(=O)(=O)c2c(N)n(CCN3CCOCC3)c3nc4ccccc4nc23)cc1C	32µM*
30	Cc1cccc(NCc2nc(SCC(N)=O)n[nH]2)c1	6%
31	O=C(O)CCCCCn1c(SCC(=O)N2CCCC2)nc2ccsc2c1=O	2%
32	COc1ccc(C2=NOC(C(=O)Nc3c(C)n(C)n(-c4ccccc4)c3=O)C2)cc1OC (stereo not drawn)	4%
33	CC(=O)Nc1ccc(N/C=C/C(=O)c2ccco2)cc1	-10%
34	Cn1c(=O)c2c(nc(CN3CCN(C(=O)c4ccco4)CC3)n2CCCc2ccccc2)n(C)c1=O	7%
35	CC1(CCc2ccccc2)NC(=O)N(Cc2nnc(-c3ccccc3Br)o2)C1=O (stereo not drawn)	-1%
36	COC(=O)c1ccc(C)c(NS(=O)(=O)c2ccc(OC)cc2)c1	2%
37	CC(=O)N1CCC2(CC1)C(C#N)=C(N)Oc1n[nH]c(C)c12	0%
38	O=C1CCc2cc(S(=O)(=O)N3CCC(C(=O)NCCC4=CCCCC4)CC3)ccc2N1	3%
39	COc1cc(C(=O)NCCC(=O)NCCCN2CCCCC2)cc(OC)c1OC	2%
40	COCc1nc2ccccc2n1CCOc1ccccc1OC	6%
41	CN(c1ccccc1C(=O)O)S(=O)(=O)c1ccc2c3c(cccc13)C(=O)N2	?
42	O=C(NCCCN1CCC(Cc2ccccc2)CC1)C1CCN(S(=O)(=O)N2CCOCC2)CC1	3%
43	CN1CCN(CC#CC(C)(O)C2CC3C=CC2C3)CC1 (stereo not drawn)	3%
44	CCOC(=O)c1cccc(NC(=O)CSc2nnc(CNc3ccc(C)cc3)n2CC)c1	-16%
45	O=C(CCCN1C(=O)c2ccccc2C1=O)NCCC1=CCCCC1	2%
46	CN(C)c1ccc(-c2nn3c(C4CCCCC4)nnc3s2)cc1	-27%
47	CCOc1ccc(C(=O)NCCC(=O)NCCCC(=O)O)cc1	7%
48	O=c1c(CCc2ccccc2)nc2cnc(Oc3cccc(Cl)c3)nc2n1C[C@H]1CCCO1	-2%
49	O=c1c2cnn(-c3ccccc3)c2ncn1Cc1ccccn1	-5%
50	CCOC(=O)Cc1csc(NC(=O)C2CCCCC2C(=O)O)n1 (stereo not drawn)	12%
51	Cc1[nH]c2ccccc2c1SCCNC(=O)c1ccc(Br)o1	-6%
52	CN(Cc1ccccc1)S(=O)(=O)c1ccc(NC(=O)C2CCCO2)cc1 (stereo not drawn)	3%
53	Cc1cc(C)c2nc(N3CCN(C)CC3)c(C#N)cc2c1	-5%
54	COc1ccc(-n2c(=O)c(-c3ccccc3)nc3cnc(N4CCN(C)CC4)nc32)cc1	-4%
55	CC(=O)Nc1ccc(NC(=O)c2c(C)nc3ccccn23)cc1	12%
56	COc1ccc(S(=O)(=O)N2CCCC(C(=O)Nc3ccc(OC)c(OC)c3)C2)cc1 (stereo not drawn)	-5%
57	CCOC(=O)N1CCN(S(=O)(=O)c2cccs2)CC1	9%
58	CC(C)CCCC(C)C1CCC2C3CC=C4CC(O)CCC4(C)C3CCC12C (stereo not drawn)	8%
59	COCC(=O)N(Cc1nc2ccccc2c(=O)[nH]1)Cc1cccs1	4%
60	N#Cc1cccc(NC(=O)N2CCCC3(CCN(C(=O)c4csnn4)CC3)C2)c1	9%

Going on with the list.
nr	canonical_smiles	HSD17B inhib
61	CCN(CC)c1ccc(NC(=O)c2[nH]c(C)c(C(C)=O)c2C)c(C)c1	6%
62	CCOc1ccc(-n2c(SCc3ccc(C(=O)OC)o3)nc3c(c2=O)SCC3)cc1	0%
63	O=C(OCn1nnc2ccccc2c1=O)C1CCN(S(=O)(=O)c2cccs2)CC1	-7%
64	CC(C)(C)N1C(=O)[C@@H]2[C@H]3C(=CC[C@H]2C1=O)C(=O)[C@H]1O[C@H]1[C@H]3O	-2%[11.4 µM]
65	CC(=O)c1ccc(NC(=O)CCC(=O)OCC(F)(F)C(F)F)cc1	-7%
66	O=C(CSc1nc2ccccc2[nH]1)c1ccco1	-17%
67	Cc1ccnc(NS(=O)(=O)c2ccc(NS(=O)(=O)c3cccs3)cc2)n1	2%
68	CC(C)(C)NC(=O)c1ccc2c(c1)N(CC(=O)N1CCN(c3ccccc3F)CC1)C(=O)C(C)(C)O2	4%
69	COC(=O)c1[nH]c2cccc(OC)c2c1NC(=O)CN1CC2(C)CC1CC(C)(C)C2 (stereo not drawn)	25µM*
70	COc1cc(Cl)c(S(=O)(=O)N2CCN(Cc3ccc4c(c3)OCO4)CC2)cc1Cl	-2%
71	OCCn1c(CSc2nnc(-c3ccco3)n2-c2ccccc2)nc2ccc(Cl)cc21	32µM*
72	CCOc1nc(-c2ccc(OC)cc2)ccc1-c1noc(-c2cc(OC)c(OC)c(OC)c2)n1	3.2µM*
73	Cc1cc(S(=O)(=O)NCCN(C)C)c(C)s1	13%
74	N=C(N)[C@H](N=Nc1ccccc1)C(N)=O	-8%[11.4 µM]
75	CC(C)(Oc1ccc(Cl)cc1)C(=O)NCCCn1ccnc1	-3%
76	C=CCNC(=O)c1cccc(Br)c1	6%
77	O=C(COc1ccc(S(=O)(=O)N2CCCC2)cc1Cl)Nc1ccc2c(c1)OCO2	-9%
78	C/C=C/Cn1c(SCc2ccc(C)cc2)nc2c1c(=O)[nH]c(=O)n2C	5%
79	COc1cccc(NC(=O)CSc2nnc(C)s2)c1	4%
80	Nc1nnc(SCc2ccc(F)cc2)s1	-6%
81	Cn1c(=O)c2c(nc(CN3CCN(c4cccc(Cl)c4)CC3)n2CCc2ccccc2)n(C)c1=O	-6%
82	CCOC(=O)c1c(OCC)[nH]c2c1cc(O)c1ccccc12	?
83	COC(=O)c1cc(OC)c(OC)cc1NC(=O)c1ccccc1	?
84	Cc1cc(C)c(C)c(S(=O)(=O)Nc2ccc(O)cc2)c1C	-16%

As a short view, part of the list above:
nr	canonical_smiles	HSD17B inhib
73	Cc1cc(S(=O)(=O)NCCN(C)C)c(C)s1	13%
74	N=C(N)[C@H](N=Nc1ccccc1)C(N)=O	-8%[11.4 µM]
75	CC(C)(Oc1ccc(Cl)cc1)C(=O)NCCCn1ccnc1	-3%
76	C=CCNC(=O)c1cccc(Br)c1	6%

(continued)
nr	canonical_smiles	HSD17B inhib
85	COc1ccc(C(O)CNc2ccc(C)cc2)cc1 (stereo not drawn)	2%
86	NCCc1nnc(SCc2ccc(F)cc2)o1	5%
87	C[C@@H](CNC(N)=O)NC(N)=O	8%[11.4 µM]
88	CCc1nnc(NC(=O)CCN2C(=O)c3ccccc3S2(=O)=O)s1	8%
89	Cc1cc(NC(=O)Cc2cn3ccsc3n2)n(-c2ccccc2)n1	8%
90	Cc1cc(C(=O)N[C@@H](c2ccccc2)[C@]2(C)C[C@H]2[C@@H](C)C(=O)Nc2ccc3ccccc3c2)n(C)n1	11%
91	CCOc1ccccc1NC(=O)c1ccccc1-c1nc(-c2ccccc2OC)no1	-12%
92	CN1CCC(N(C)C(=O)COc2ccccc2-c2ccccc2)CC1	4%
93	CC(C)(C)N1C(=O)c2ccc(C(=O)NCc3ccco3)cc2C1=O	12%
94	CCC1=C(OC(=O)N(CC)CC)N2C(=O)OC(=NCc3ccccc3)[C@]2(C)[C@H]2C1=CC[C@H]1C(=O)N(CC)C(=O)[C@H]12	2%
95	CN(C)c1nc(N)nc(CSc2nnnn2-c2cccc3ccccc23)n1	7%
96	CC1Cc2ccccc2N1C(=O)COC(=O)Cn1cnc2ccccc2c1=O (stereo not drawn)	7%
97	CCOC(=O)c1nnn(-c2nonc2OC)c1-c1ccccc1	0%
98	CCCc1[nH][nH]c(=O)c1C(c1cccc(Cl)c1)C(C#N)C#N (stereo not drawn)	?
99	O=S(=O)(Nc1cnc2ccccc2c1)N1CCCCCC1	2%
100	Cc1cc(C)c2c(n1)nn1c(-n3ccnc3)cc(C)nc21	?
101	O=C(O)c1cc(S(=O)(=O)Nc2ccc3oc(=O)sc3c2)ccc1O	16µM*
102	CCOC(=O)N1CCC(N(C(=O)Nc2ccccc2)C(C)CC)CC1 (stereo not drawn)	5%
103	Cc1ccc(SCC(=O)NCc2ccco2)cc1	15%
104	O=C(NCc1nnc(SCC(=O)N2CCN(c3ccccc3)CC2)o1)c1ccco1	0%
105	O=C(Nc1ccccc1)N1CCC2(CC1)CCN(S(=O)(=O)c1ccccc1)CC2	-5%
106	N#C/C(=C\c1ccc(O)c(O)c1)S(=O)(=O)c1ccccc1	25µM*
107	CCn1cc(C(=O)NCc2ccco2)c2cc(OC)c(OC)cc2c1=O	-10%
108	COc1cc(CNc2ncn[nH]2)cc(Br)c1OC	1%
109	O=C(O)c1cc(N2C(=O)C3C4C=CC(C4)C3C2=O)ccc1NCc1cccnc1 (stereo not drawn)	?
110	CCOC(=O)C1CCN(C(=O)N2CCOCC2)CC1	5%
111	COc1ccc(CNc2ccnc(-c3ccoc3)n2)c(OC)c1	0%
112	CCCCCCNc1c(C(=O)OCC)c(=O)[nH]c2ccccc12	0%
113	CCOC(=O)c1[nH]c2cc(OC)c(OC)cc2c1NC(=O)CN1CCN(C)CC1	25µM*
114	N=C(N)CCNC(=O)[C@@H]1CCC(N)=N1	5%[11.4 µM]
115	CCOC(=O)N1CCN(c2c(NCc3cccs3)c(=O)c2=O)CC1	14%
116	CS(=O)(=O)Nc1ccccc1C(=O)Nc1ccc2c(c1)OCCO2	4%
117	O=C(Nc1ccccn1)[C@@H]1CCC(=O)N1C(=O)OCc1ccccc1	5%
118	COc1cc(NS(=O)(=O)c2ccc(OC)c(OC)c2)cc(OC)c1	-1%
119	O=C(Nc1ccc(Cc2ccc(NC(=O)N3CCOCC3)cc2)cc1)N1CCOCC1	2%
120	CCCNC(=O)CN(C)C(=O)c1n[nH]c2ccccc12	-3%
121	CN(C)CCNC(=O)c1ccc(COCC(F)(F)F)cc1	5%
122	COC(=O)c1cc(NC(=O)Cn2c(=O)cnc3ccccc32)cc(C(=O)OC)c1	-13%
123	COCC(=O)Nc1cc(OC)ccc1OC	6%
124	CN(Cc1ccccc1)c1nc2c(c(=O)[nH]c(=O)n2C)n1CCCc1ccccc1	-6%
125	Brc1ccc(-c2nn3c(-c4ccccn4)nnc3s2)o1	?
126	N#Cc1nc(COc2ccccc2)oc1NCCCn1ccnc1	1%
127	O=C1c2cccnc2C(O)N1Cc1ccccc1 (stereo not drawn)	1%
128	COC(=O)C1=C(C)Nc2ncnn2C1c1ccc(C)o1 (stereo not drawn)	8%
129	CCCN1C(=O)c2cc(C(=O)NC3CCCC3)ccc2C1O (stereo not drawn)	11%
130	Cc1cc(=O)[nH]c(Nc2cccc(C(F)(F)F)c2)n1	-4%
131	O=C(NCc1ccco1)C1CCCN(S(=O)(=O)c2ccc(-n3cnnn3)cc2)C1 (stereo not drawn)	-4%
132	COCCNC(=O)c1ccc(Cc2nc3ccccc3[nH]2)cc1	2%
133	Cc1cccc(N2CCN(C(=O)c3ccncc3)CC2)c1C	11%
134	Oc1cc(O)c2c(c1)O[C@H](c1ccc(O)c(O)c1)[C@@H](O)C2	-4%
